# Screening data (PubChem)
# GLA inh pH 4.5: qHTS Assay for Inhibitors of Human alpha-Galactosidase at pH 4.5 | 230,000 tested, under 10 active | purified enzyme, 4-MU-alpha-Gal fluorescence, pH 4.5 | activity change, negative = inhibition, % at 105 µM | AID 1467, 2008 | Alpha-galactosidase A (Homo sapiens), P06280; inconclusive = small, poorly fitted or top-dose-only inhibition, or a rising curve; inactive = flat fitted curve, though single readings scatter; no compound was filed as active;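 also: 0% = full activity with enzyme and -100% = basal without enzyme; dose as in the result columns while the protocol names 77 µM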
# Rango release inh: qHTS Assay for Inhibitors of RanGTP induced Rango (Ran-regulated importin-beta cargo) - Importin beta complex dissociation | Potency, µM (doses to about 46.1 µM), inactives show top-dose activity change, negative = inhibition | Biochemical FRET Rango-importin beta, RanGTP-induced dissociation | Snurportin-1 (Homo sapiens) + GTP-binding nuclear protein Ran (Homo sapiens) + Importin … | 340,000 tested, 0.071% active | AID 540253, 2011; active means falling FRET ratio curve, often poorly fitted, with flat reads before Ran was added; inconclusive means other falling curves, or compound fluorescence or quenching; inactive means flat or rising ratio curve;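 also: potency is read from the fitted curve at half-maximal effect; % of control where 0% means no effect; nearly all actives have a fitted effect of over 45% in size; -100% = wells without RanGTP and RCC1; the record marks most hits as doubtful in a second field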
#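 Quantitative HTS using a FRET biosensor: 0.1 uM Rango, 0.25 uM importin beta, 0.6 uM Ran, 2 mM GTP, 0.2 uM RCC1 final, PBS with DTT, Tween-20 and BSA. Post-read taken 45 min after Ran addition.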
# miR-21 reporter: qHTS Assay for Modulators of miRNAs and/orActivators of miR-21; AID 2288, 2010; 340,000 tested, under 10 active; HeLa miR-21 FLuc reporter, luciferase, 48 h; Potency, µM (top dose mostly 38.3 µM), for inactives: at the top dose reporter change, positive = more light; active = well fitted rising curve with a large enough effect; inconclusive = small, poorly fitted or top-dose-only effect; inactive = no such curve, though single readings can be large or run the other way;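 also: % of control where 0% means no effect; miR-21 action dims this reporter so a rising signal means less miR-21 action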
#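 Using DMEM plus 10% FBS, HeLa miR-21-FLuc cells are incubated with test compounds (final up to about 40uM) for 48 hours; firefly luciferase signal is then imaged following reagent-mediated lysis.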
# Rango complex inh: qHTS Assay for Inhibitors of Rango (Ran-regulated importin-beta cargo) - Importin beta complex formation. Importin subunit beta-1 (Homo sapiens), Q14974. Rango CFP/YFP FRET sensor + importin beta, 45 min. Potency, µM (series often up to 92.2 µM), for the others: at the top dose inhibition of complex formation. 340,000 tested, 0.031% active; active = rising FRET ratio curve, often small or poorly fitted; inconclusive = mostly compound fluorescence or quenching in the first reads; inactive = flat curves in all reads;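 also: potency is read from the fitted curve at half-maximal effect; 0% = DMSO wells and 100% = buffer wells lacking importin beta; nearly all actives have a fitted effect of over 15% in size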
# Target sequence (Q14974 whole entry, looked up): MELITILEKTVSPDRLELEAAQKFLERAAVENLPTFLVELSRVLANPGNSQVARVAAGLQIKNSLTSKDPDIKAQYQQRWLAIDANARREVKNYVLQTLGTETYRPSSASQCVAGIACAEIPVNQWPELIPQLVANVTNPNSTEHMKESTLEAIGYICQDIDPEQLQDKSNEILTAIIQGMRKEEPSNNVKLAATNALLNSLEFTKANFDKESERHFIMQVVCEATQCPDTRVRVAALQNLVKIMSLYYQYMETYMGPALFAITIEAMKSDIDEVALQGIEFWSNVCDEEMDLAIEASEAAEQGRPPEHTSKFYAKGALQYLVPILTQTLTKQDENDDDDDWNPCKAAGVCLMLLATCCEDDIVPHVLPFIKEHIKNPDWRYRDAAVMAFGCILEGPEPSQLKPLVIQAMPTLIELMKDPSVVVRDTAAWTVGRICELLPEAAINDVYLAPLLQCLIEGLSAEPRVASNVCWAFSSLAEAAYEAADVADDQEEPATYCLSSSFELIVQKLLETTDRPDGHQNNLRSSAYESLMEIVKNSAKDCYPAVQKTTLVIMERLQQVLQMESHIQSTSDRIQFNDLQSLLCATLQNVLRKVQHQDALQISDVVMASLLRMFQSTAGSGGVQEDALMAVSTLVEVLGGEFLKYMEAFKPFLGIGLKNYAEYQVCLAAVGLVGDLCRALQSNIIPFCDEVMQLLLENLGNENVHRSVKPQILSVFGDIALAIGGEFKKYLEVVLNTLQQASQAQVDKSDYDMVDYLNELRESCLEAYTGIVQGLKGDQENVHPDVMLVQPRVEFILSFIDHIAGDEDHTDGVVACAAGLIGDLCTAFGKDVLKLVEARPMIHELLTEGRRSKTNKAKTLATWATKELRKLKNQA
#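 FRET biosensor Rango (snurportin 1 IBB between N-terminal EYFP and C-terminal Cerulean), 50 nM in PBS/1 mM DTT/0.02% Tween-20/0.1% BSA, preincubated 5 min RT with compound; 0.125 microM importin beta added, 45 min RT, CFP/YFP FRET ratio read.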
# Active calls of the source: *; u = inconclusive; x = no result given; & = joins results of further samples.
# Sequence of screens – Rango release inh	Rango complex inh	GLA inh pH 4.5	miR-21 reporter
- Cc1ccc(-n2nc3c(N4CCC(C(=O)NCCc5ccco5)CC4)nnc(C)c3c2C)cc1
→ -18%	-0.9%	x	2%
- O=C(CSc1nnnn1C1CCCCC1)Nc1nc2c(s1)CCCC2
→ 3%	0.9%	2	-12%
- O=C(O)C(C(O)c1ccccc1)[n+]1ccccc1 (centres undefined)
→ -13%	0.3%	x	x
- CCOC(=O)CSc1cn2c(n1)CCC2
→ -4%	1.1%	-7	-14%
- CCC(C)(C)NC(=O)C(c1ccc(C)cc1)N(CC1CCCO1)C(=O)CCC(=O)Nc1ccccn1 (centres undefined)
→ 7%	3.1%	x	0%
- COC(=O)C1=C(C(=O)OC)[C@@H]2N(Cc3ccccc3)c3ccccc3[C@@]23C[C@@H](C(=O)OC)N(C(=O)COCc2ccccc2)C3=N1
→ 1%	-2.4%	-13&4	23%
- COc1ccc(S(=O)(=O)NCc2ccncc2)cc1OC
→ -5%	-3.3%	-10	6%
- Cc1ccc(C)c(S(=O)(=O)NCC(=O)NCc2ccco2)c1
→ -3%	-3.3%	1	-3%
- CC(=O)N1CSCC1C(=O)NNS(=O)(=O)c1cccc(C(F)(F)F)c1 (centres undefined)
→ 0%	4.2%	1	-4%
- COc1ccccc1N1CCN(CCC(=O)Nc2cccc(Cl)c2)CC1
→ 1%	0.8%	x	4%
- O=C(c1cc(-c2cccs2)on1)N1CCCCC1
→ -8%	-0.4%	-8	-33%
- COc1ccccc1CN1CC(C(=O)N(C)Cc2ccncc2C)CCC1=O (centres undefined)
→ 0%	-0.2%	x	-2%
- O=C(c1cc2c(s1)-c1ccccc1S(=O)(=O)C2)N1CCN(Cc2ccccc2)CC1
→ -14%	u	0	24%
- O=C(CCc1nnc(CCCCc2ccccc2)o1)N1CCN(CCO)CC1
→ -6%	-0.5%	5	-1%
- O=C(Cc1ccsc1)NCC(=O)Nc1ccccc1Br
→ -3%	8.8%	x	x

# Sequence of screens – Rango release inh	Rango complex inh	GLA inh pH 4.5	miR-21 reporter
- CCCCCn1c(CNC(=O)CCC)nc2ccccc21
→ -16%	-0.6%	0	-4%
- COc1ccc(C(C)NC(=O)c2ccccc2Cl)cc1OC (centres undefined)
→ -10%	-1.5%	14	-2%
- O=S(=O)(Nc1ccc(O)cc1)c1cccc2cccnc12
→ 18%	4.9%	-3	-8%
- O=C(c1cccs1)N1CCc2ccccc2C1
→ 14%	-5.9%	4	1%
- CCn1c(SCC(=O)c2c(N)n(C3CC3)c(=O)[nH]c2=O)nnc1-c1ccccc1OC
→ -3%	-2.8%	x	x
- O=C(CNc1n[nH]c(=O)[nH]c1=O)N/N=C/C=C/c1ccccc1
→ 6%	-0.3%	-2	-10%
- COc1cccc(CNC(=O)CN2C(=O)NC(Cc3ccccc3)(c3ccccc3)C2=O)c1 (centres undefined)
→ 0%	1.5%	x	x
- Cc1ccc(SC(C)c2nc(-c3ccccc3)no2)cc1 (centres undefined)
→ 5%	0.0%	-11	-26%
- Cc1ccc(N(C)S(=O)(=O)c2cccc(C(=O)Nc3ccc(N4CCOCC4)cc3)c2)cc1
→ 2%	-0.6%	x	x
- CCCCSc1ncnc2[nH]ncc12
→ -3%	0.0%	-1	-45%
- Cc1nc(NC(=O)CSc2nnc(C)n2CC2CCCO2)sc1C (centres undefined)
→ 3%	u	-7	0%
- CCOC(=O)c1[nH]cc(-c2ccccc2)c1N1CCOCC1
→ 21%	7.5%	-5	2%
- CCOC(=O)CNS(=O)(=O)c1cc(-c2n[nH]c(=O)c3ccccc23)ccc1C
→ -11%	-1.0%	2	-19%
- CCOCc1nnc(NC(=O)c2cc(C(=O)OC)cc([N+](=O)[O-])c2)s1
→ 0%	u	0	-2%
- CCCCc1nc(NCc2ccccc2)c(C#N)c2c1CCCC2
→ -5%	u	-1	0%

# Given with the structure last: part of the list above.
Rango release inh,Rango complex inh,GLA inh pH 4.5,miR-21 reporter,molecule
-3%,8.8%,x,x,O=C(Cc1ccsc1)NCC(=O)Nc1ccccc1Br
-16%,-0.6%,0,-4%,CCCCCn1c(CNC(=O)CCC)nc2ccccc21
-10%,-1.5%,14,-2%,COc1ccc(C(C)NC(=O)c2ccccc2Cl)cc1OC (centres undefined)
18%,4.9%,-3,-8%,O=S(=O)(Nc1ccc(O)cc1)c1cccc2cccnc12
14%,-5.9%,4,1%,O=C(c1cccs1)N1CCc2ccccc2C1
-3%,-2.8%,x,x,CCn1c(SCC(=O)c2c(N)n(C3CC3)c(=O)[nH]c2=O)nnc1-c1ccccc1OC
6%,-0.3%,-2,-10%,O=C(CNc1n[nH]c(=O)[nH]c1=O)N/N=C/C=C/c1ccccc1
0%,1.5%,x,x,COc1cccc(CNC(=O)CN2C(=O)NC(Cc3ccccc3)(c3ccccc3)C2=O)c1 (centres undefined)
5%,0.0%,-11,-26%,Cc1ccc(SC(C)c2nc(-c3ccccc3)no2)cc1 (centres undefined)
2%,-0.6%,x,x,Cc1ccc(N(C)S(=O)(=O)c2cccc(C(=O)Nc3ccc(N4CCOCC4)cc3)c2)cc1
-3%,0.0%,-1,-45%,CCCCSc1ncnc2[nH]ncc12
3%,u,-7,0%,Cc1nc(NC(=O)CSc2nnc(C)n2CC2CCCO2)sc1C (centres undefined)
21%,7.5%,-5,2%,CCOC(=O)c1[nH]cc(-c2ccccc2)c1N1CCOCC1
-11%,-1.0%,2,-19%,CCOC(=O)CNS(=O)(=O)c1cc(-c2n[nH]c(=O)c3ccccc23)ccc1C
0%,u,0,-2%,CCOCc1nnc(NC(=O)c2cc(C(=O)OC)cc([N+](=O)[O-])c2)s1
-5%,u,-1,0%,CCCCc1nc(NCc2ccccc2)c(C#N)c2c1CCCC2

# More results follow:
# Sequence of screens – Rango release inh	Rango complex inh	GLA inh pH 4.5	miR-21 reporter
- COc1ccc2c(c1O)C(=O)c1ccccc1C2=O
→ x	x	-6	-9%
- CCC12CN(C(=O)c3ccc(C)cc3)CC(CC)(CN(C(=O)c3ccc(C)cc3)C1)C2=O
→ 9%	-1.5%	3	-4%
- Cc1cc(Cl)c(C)c(S(=O)(=O)N2CCN(C(=O)C3CCCO3)CC2)c1Cl (centres undefined)
→ -14%	0.6%	x	x
- CC(C)CCN1CCNC(=O)C1CC(=O)NCCCN1CCOCC1 (centres undefined)
→ 6%	u	x	-3%
- CCC(CC)c1nnc(NC(=O)C2=COCCO2)s1
→ -1%	0.9%	x	x
- CCCOc1ccc(NC(=O)CC2C(=O)N(Cc3ccccc3)C(=S)N2Cc2cccs2)cc1 (centres undefined)
→ -6%	-1.6%	2	u
- CC(=O)Nc1ccc(C(=O)N/C(=C/c2ccccc2)C(=O)Nc2cccc(C(=O)O)c2)cc1
→ 0%	u	12	-2%
- C[C@H](NC(=O)c1ccccc1Cl)C(=O)NCc1cccs1
→ -7%	1.2%	11	-3%
- Cc1ccc(C(=O)CSc2ccc(-c3ccncc3)nn2)cc1
→ -3%	-1.6%	-3	2%
- O=C(NCc1ccco1)C(=O)c1cn(CC(=O)N2CCCCCC2)c2ccccc12
→ -3%	-3.2%	3	0%
- Cc1cccc(NC(=S)Nc2c(C)n(C)n(-c3ccccc3)c2=O)c1C
→ u	-0.7%	4	-2%
- Nc1nnn(Cc2ccccc2)n1
→ 9%	-1.2%	3	-1%
- O=C(/C=C/c1cccc(F)c1)N(c1ccccn1)C1CCCCC1
→ -2%	2.3%	-11	-4%
- Cc1ccc(-c2nc(C)c(C(=O)O)s2)cc1
→ -2%	1.9%	6	-39%
- O=C(NCc1ccco1)c1ccc2ccccc2n1
→ u	6.2%	-20	-14%
- O=C(c1cccnc1)N1CCN(CCCc2ccccc2)CC1
→ 1%	-4.0%	0	-3%
- O=C(c1cc2ccccc2o1)N1CCN(c2cccc(Cl)c2)CC1
→ -4%	-1.6%	x	-1%
- Cc1ccc(C)c(N(C(=O)CNC(=O)c2ccco2)C(C(=O)NC2CCCCC2)c2cccnc2)c1 (centres undefined)
→ -10%	-1.6%	x	-4%

# An excerpt, so the mix of outcomes need not match the whole.
